H5N1 antiviral = MDCK cell protection from H5N1 avian flu. cytopathic effect, luminescence, 72 h; stronger effect = higher value; no value below 0 was filed and about half of the inactive calls have no number; reference of the scale not given here. inhibition, % at 50 µM. 0.07% of 96,000 active. AID 740; in the data active = inhibition above about 25%
An asterisk follows results filed as active. A portion of the library; rates above refer to the full screens.

What do the screens show for `Cc1cc(=O)c2n(Cc3ccccc3Cl)nc[n+]2[nH]1`?
H5N1 antiviral: inactive

Results for O=c1[nH]c(=S)c2c(n1-c1ccccc1)CCC2 ?
H5N1 antiviral: 0.8

How did O=c1c2ccccc2nnn1CSc1nnc(-c2ccc3c(c2)OCO3)o1 do in these assays?
H5N1 antiviral: inactive

Results for O=C1CC(N(CCc2ccccc2)C(=S)Nc2cc(Cl)ccc2Cl)C(=O)N1c1c(Cl)cccc1Cl (configuration not stated) ?
H5N1 antiviral: inactive

What do the screens show for `COc1ccc(OCC(=O)N2CCN(C(=O)c3cccc4ccccc34)CC2)cc1`?
H5N1 antiviral: 2.7

How did COc1ccc(C(=O)N2CCN(C(=O)c3ccco3)CC2)cc1OC do in these assays?
H5N1 antiviral: 0.6

Results for Cc1cc2nc(-c3cccc(NC(=O)c4ccc(Br)o4)c3)oc2cc1C ?
H5N1 antiviral: inactive

How did C/C(CC(=O)Nc1ccccn1)=N\NC(=O)C(=O)Nc1cccc(Cl)c1C do in these assays?
H5N1 antiviral: 0.0

Results for CC(C)CSc1nsc(N)n1 ?
H5N1 antiviral: 0.5

What do the screens show for `Cn1c(=O)c2cc(S(=O)(=O)NCCC(=O)Nc3ccccc3F)ccc2n(C)c1=O`?
H5N1 antiviral: 2.3

Results for COc1ccc(C(=S)NC2CCCCC2)cc1 ?
H5N1 antiviral: 1.8

What do the screens show for `Cc1cccc(C)c1OCC(O)Cn1nnc2ccccc21` (configuration not stated)?
H5N1 antiviral: inactive

Molecules listed so far containing an aryl methoxy group:
What do the screens show for `COc1ccc(OCC(=O)N2CCN(C(=O)c3cccc4ccccc34)CC2)cc1`?
H5N1 antiviral: 2.7

How did COc1ccc(C(=O)N2CCN(C(=O)c3ccco3)CC2)cc1OC do in these assays?
H5N1 antiviral: 0.6

Results for COc1ccc(C(=S)NC2CCCCC2)cc1 ?
H5N1 antiviral: 1.8

Continued:
What do the screens show for `O=C(CSc1nnc(-c2cccnc2)n1-c1ccccc1)Nc1ccccn1`?
H5N1 antiviral: 0.7

Results for COCCn1c(SCC#N)nnc1-c1ccc2c(c1)OCO2 ?
H5N1 antiviral: inactive

What do the screens show for `CCC(C)c1ccc(O)c(NC(=O)c2ncn[nH]2)c1` (configuration not stated)?
H5N1 antiviral: 0.3

Results for O=C(NCc1ccco1)C1CC(=O)N(c2ccc(O)cc2)C1 (configuration not stated) ?
H5N1 antiviral: 0.7

What do the screens show for `Cc1ccccc1SCc1noc(C(=O)NCC2CCCO2)c1C(=O)O` (configuration not stated)?
H5N1 antiviral: inactive

What do the screens show for `COC(=O)c1ccc(C(=O)OC)c(N)c1`?
H5N1 antiviral: inactive

Results for Cc1ccc(-c2nc(-c3ccccn3)no2)cc1Cl ?
H5N1 antiviral: inactive

Results for CCn1c(=O)c(C(=O)Nc2nc3ccccc3[nH]2)c(O)c2ccccc21 ?
H5N1 antiviral: inactive

How did COc1ccc(CCNC(=O)CSc2nc3c(c(=O)n(C)c(=O)n3C)n2C(C)C)cc1OC do in these assays?
H5N1 antiviral: 2.7

What do the screens show for `COc1ccccc1S(=O)Cc1ccc(C(=O)NCc2ccccc2Cl)o1` (configuration not stated)?
H5N1 antiviral: 1.4

Results for Cc1n[nH]c(=O)nc1N1CCc2ccccc2C1 ?
H5N1 antiviral: 0.3

What do the screens show for `CN(C)CC(=O)c1ccc(-c2ccccc2)cc1`?
H5N1 antiviral: inactive

How did CCSc1nc(C2CC2)cc(-c2ccco2)c1C#N do in these assays?
H5N1 antiviral: 8.0

How did COc1ccc2c(c1)Sc1ccccc1N2CCN(C)C do in these assays?
H5N1 antiviral: inactive

How did CCSC(C)CC1C/C(=N/O)c2c(CC)noc2C1 (configuration not stated) do in these assays?
H5N1 antiviral: inactive

Results for COc1ccc(C)cc1NCc1cccc(OC)c1OC ?
H5N1 antiviral: inactive

Results for COc1ccc(OC)c(C(=O)CSc2nccc(-c3ccc(Br)cc3)n2)c1 ?
H5N1 antiviral: 0.4

What do the screens show for `CCCN(Cc1ccccc1)C(=O)Nc1ccc2c(c1)nnn2C`?
H5N1 antiviral: inactive

What do the screens show for `CSc1ccccc1-c1nnc(-c2ccc(Cl)cc2)o1`?
H5N1 antiviral: inactive

Results for COC(=O)Cc1[nH]nc2c1C(c1c[nH]c3ccccc13)C(C#N)=C(N)O2 (configuration not stated) ?
H5N1 antiviral: 0.5

How did Cn1c(=O)c2c(nc(SCCCO)n2Cc2ccccc2Cl)n(C)c1=O do in these assays?
H5N1 antiviral: 2.9

How did CC1(C)Oc2ccc3ccc(=O)oc3c2-c2cnoc21 do in these assays?
H5N1 antiviral: 1.0

Results for OC(CN1CCOCC1)CN1CCOCC1 ?
H5N1 antiviral: 0.8

How did Cc1cccc(NS(=O)(=O)c2cc(C(=O)NCCC3=CCCCC3)ccc2Cl)c1 do in these assays?
H5N1 antiviral: 3.0

A draw from above in order of SMILES length, low to high:
Results for OC(CN1CCOCC1)CN1CCOCC1 ?
H5N1 antiviral: 0.8

Results for COc1ccc(C)cc1NCc1cccc(OC)c1OC ?
H5N1 antiviral: inactive

How did Cn1c(=O)c2c(nc(SCCCO)n2Cc2ccccc2Cl)n(C)c1=O do in these assays?
H5N1 antiviral: 2.9

The main list resumes, starting five compounds before the break.
Results for COC(=O)Cc1[nH]nc2c1C(c1c[nH]c3ccccc13)C(C#N)=C(N)O2 (configuration not stated) ?
H5N1 antiviral: 0.5

How did Cn1c(=O)c2c(nc(SCCCO)n2Cc2ccccc2Cl)n(C)c1=O do in these assays?
H5N1 antiviral: 2.9

How did CC1(C)Oc2ccc3ccc(=O)oc3c2-c2cnoc21 do in these assays?
H5N1 antiviral: 1.0

Results for OC(CN1CCOCC1)CN1CCOCC1 ?
H5N1 antiviral: 0.8

How did Cc1cccc(NS(=O)(=O)c2cc(C(=O)NCCC3=CCCCC3)ccc2Cl)c1 do in these assays?
H5N1 antiviral: 3.0

What do the screens show for `Clc1ccc(OCc2nnc3n2N=C(c2ccc4c(c2)OCCO4)CS3)c(Cl)c1`?
H5N1 antiviral: inactive

What do the screens show for `CC(=O)c1cccc(NC2c3ccccc3C(=O)N2Cc2ccc3c(c2)OCO3)c1` (configuration not stated)?
H5N1 antiviral: inactive

Results for COCCCn1c(=NC(=O)c2ccncc2)c(C#N)cc2c(=O)n3cccc(C)c3nc21 ?
H5N1 antiviral: 5.9

What do the screens show for `CC(C(=O)NC1=NCCS1)N1C(=O)C2CC=CCC2C1=O` (configuration not stated)?
H5N1 antiviral: 0.4

How did CCOP(=O)(c1ccc(N(C)C)cc1)C(O)c1cc(OC)c(OC)c(OC)c1 (configuration not stated) do in these assays?
H5N1 antiviral: inactive

What do the screens show for `CCOc1cccc(C(=O)Nc2cccc(-c3nc4ncccc4o3)c2C)c1`?
H5N1 antiviral: 1.9

Results for COc1cc2c(cc1OC)-c1nnc(C)n1C1(CCCC1)C2 ?
H5N1 antiviral: 0.7

How did CC(=O)N1CCN(c2ccc(NCc3ccc(C(C)C)cc3)cc2)CC1 do in these assays?
H5N1 antiviral: inactive

Results for Cc1ccc(Oc2ccc(OCC(=O)NC(C)C(=O)O)cc2)cc1 (configuration not stated) ?
H5N1 antiviral: inactive

What do the screens show for `Cc1cc(C(F)(F)F)n2ncc(C(=O)O)c2n1`?
H5N1 antiviral: inactive

Results for CN1CCN(CCCNC(=O)c2ccc(CSCc3cccc(Cl)c3)o2)CC1 ?
H5N1 antiviral: inactive

How did CCOC(=O)c1c(NC(=O)CSc2nc3ccccc3s2)sc(C(C)=O)c1C do in these assays?
H5N1 antiviral: inactive

Results for Cc1[nH]c(=O)[nH]c(=O)c1S(=O)(=O)N1CCCC(C(=O)N2CCN(c3ccccc3Cl)CC2)C1 (configuration not stated) ?
H5N1 antiviral: inactive

Results for CN(Cc1ccccc1)c1nc2c(c(=O)n(C)c(=O)n2C)n1CCCc1ccccc1 ?
H5N1 antiviral: inactive

How did Cc1cc(Cl)ccc1OC(C)C(=O)Nc1ccc(S(=O)(=O)Nc2cnc3ccccc3n2)cc1 (configuration not stated) do in these assays?
H5N1 antiviral: 0.9

How did COCC(=O)Nc1nnc(CCc2ccccc2)s1 do in these assays?
H5N1 antiviral: 0.1

What do the screens show for `CC1CCN(C(=O)C(Cc2ccccc2)n2cccc2)CC1` (configuration not stated)?
H5N1 antiviral: 4.9

Results for CCOC(=O)CNC(=O)Cn1cnc2c(nnn2-c2cccc(Cl)c2)c1=O ?
H5N1 antiviral: inactive

How did CCOc1ccc(S(=O)(=O)N(CC(N)=O)c2ccc(C)cc2)cc1 do in these assays?
H5N1 antiviral: 0.7

How did C/C(=N\OC(=O)Nc1ccc(Cl)cc1)c1ncc(C(F)(F)F)cc1N1CCOCC1 do in these assays?
H5N1 antiviral: inactive

How did Cc1nn(CC(=O)NCc2ccccc2)c(=O)c2ccccc12 do in these assays?
H5N1 antiviral: 0.9

Results for CCOc1ccc(NC(=O)CSc2nnc(C)n2CC2CCCO2)cc1 (configuration not stated) ?
H5N1 antiviral: 1.6

What do the screens show for `CN1/C(=C/C2CC(=O)N(c3ccc([N+](=O)[O-])cc3)C2=O)C(C)(C)c2ccccc21` (configuration not stated)?
H5N1 antiviral: 1.4

Results for C/C(N)=C(/C#N)C(=O)COC(=O)c1ccncc1 ?
H5N1 antiviral: inactive

How did COc1ccc(N2CCN(c3oc(Cc4ccccc4)nc3C#N)CC2)cc1 do in these assays?
H5N1 antiviral: 0.3

How did O=C(CN(Cc1ccco1)C(=O)CNS(=O)(=O)c1ccc(Cl)cc1)NC1CCCCC1 do in these assays?
H5N1 antiviral: 0.2

What do the screens show for `COc1ccc(C2C(C(N)=O)=C(C)Nc3ncnn32)cc1` (configuration not stated)?
H5N1 antiviral: 0.3

Results for COC(=O)c1c(C(C)=O)cnc2ccc(Br)cc12 ?
H5N1 antiviral: inactive

How did Cc1nc(SCC(=O)c2cccs2)c2oc3ccccc3c2n1 do in these assays?
H5N1 antiviral: inactive

How did O=C(CSc1nnc(-c2cccnc2)n1Cc1ccco1)c1ccccc1 do in these assays?
H5N1 antiviral: 1.8

Results for CCOC(=O)C1CCCN(C(=O)CS(=O)(=O)Cc2ccccc2)C1 (configuration not stated) ?
H5N1 antiviral: inactive

How did CCn1c(SCc2nc3ccccc3[nH]2)nnc1-c1ccncc1 do in these assays?
H5N1 antiviral: 0.7

Results for O=C(Nc1ccc(Cl)c(Cl)c1)OCCNC(=O)c1cccc(Cl)c1 ?
H5N1 antiviral: inactive

Results for CCc1cc(OCCN2C(=O)NC(C)(C)C2=O)ccc1Cl ?
H5N1 antiviral: inactive

Results for O=C(NC1CCCCC1)c1sc(=S)n2c1[nH]c(=O)c1ccccc12 ?
H5N1 antiviral: 2.2

Results for Cc1ccc(C)c(N(CC(=O)NCCC2=CCCCC2)S(C)(=O)=O)c1 ?
H5N1 antiviral: 1.4

What do the screens show for `CCC(NS(=O)(=O)c1ccc(C)cc1)C(=O)N1CCN(c2ccccn2)CC1` (configuration not stated)?
H5N1 antiviral: 0.6

What do the screens show for `CSC1=C(C#N)C(c2ccc(C)cc2)C2=C(CCCC2=O)N1` (configuration not stated)?
H5N1 antiviral: 0.9

What do the screens show for `Cc1cccc(NC(=O)c2cc(NC(=O)C3CCCCC3C(=O)O)ccc2N2CCCCC2)c1` (configuration not stated)?
H5N1 antiviral: 0.3

What do the screens show for `CNC(=O)c1ccsc1NC(=O)c1ccc(Cl)s1`?
H5N1 antiviral: inactive

Results for Cc1cc(O)c(/C=N/Nc2ccc(Cl)cc2)c(=O)o1 ?
H5N1 antiviral: inactive

How did Cc1[nH]c2ccccc2c1C(c1ccccn1)c1c(C)[nH]c2ccccc12 do in these assays?
H5N1 antiviral: 0.3

Results for c1ccc2c(CCNc3ncnc4nc[nH]c34)c[nH]c2c1 ?
H5N1 antiviral: inactive

How did O=C(OCc1cc2ccccc2[nH]c1=O)c1ccncc1 do in these assays?
H5N1 antiviral: 1.3

Results for CCN(CC)CCCN=Cc1c(O)n(-c2ccccc2F)c(=O)[nH]c1=O ?
H5N1 antiviral: inactive

What do the screens show for `CCN(CC)S(=O)(=O)c1ccc(NC(=O)CCC2CCCCC2)cc1`?
H5N1 antiviral: inactive

How did O=c1cc(NCc2ccco2)[nH]c(=O)n1-c1ccc(Br)cc1 do in these assays?
H5N1 antiviral: 1.7

How did Cc1ccc(CSc2ncnc3c2cnn3Cc2ccccc2)cc1C do in these assays?
H5N1 antiviral: inactive

How did COc1ccccc1-n1cnnc1SC1CCOC1=O (configuration not stated) do in these assays?
H5N1 antiviral: 0.7

What do the screens show for `Cc1sc(-n2c(C)cc(/C=C3\SC(=S)NC3=O)c2C)c(C#N)c1C`?
H5N1 antiviral: inactive

Results for N#Cc1ccccc1Cn1c(=O)n(C2CCCC2)c(=O)c2ccccc21 ?
H5N1 antiviral: 0.3

What do the screens show for `S=C1NC(c2ccccc2)=NCN1c1ccccc1`?
H5N1 antiviral: inactive

Results for N#CC1=C2SCN(Cc3ccccc3)CN2C(=O)CC1c1ccc2c(c1)OCO2 (configuration not stated) ?
H5N1 antiviral: inactive

What do the screens show for `N#Cc1c(NC(=O)c2ccncc2)sc2c1CCC2`?
H5N1 antiviral: 1.1

How did COc1ccc(OC)c(S(=O)(=O)NC2CCCCC2)c1 do in these assays?
H5N1 antiviral: inactive

How did COC(=O)C(Cc1cnc(Cl)s1)(C(=O)OC)c1ccccc1[N+](=O)[O-] do in these assays?
H5N1 antiviral: 0.2

What do the screens show for `COc1cc(C)c(CNc2cccc(C)c2)cc1C`?
H5N1 antiviral: inactive

How did Cc1cc(C)n2nc(C(=O)Nc3nccs3)nc2n1 do in these assays?
H5N1 antiviral: 1.9

How did Cc1ccc(CNc2ccc(CNc3ncn[nH]3)cc2)cc1 do in these assays?
H5N1 antiviral: 0.4

How did Cc1nnc(NC(=O)c2cccc(F)c2)s1 do in these assays?
H5N1 antiviral: 1.4

How did C/C(NCCCn1ccnc1)=C(\C#N)C(N)=O do in these assays?
H5N1 antiviral: 1.3

What do the screens show for `Cc1cc(C)cc(CC2CC(=O)N(c3nc(C)cc(C)n3)C2=O)c1` (configuration not stated)?
H5N1 antiviral: inactive

Compound activity from PubChem.
